UUG fidelity: modulators of start codon recognition fidelity in yeast. S. cerevisiae UUG-firefly luciferase reporter, luminescence/redox ratio. activity score, % at 18.7 µM. actives 0.13% (n = 350,000). AID 602363;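 active means replicate mean at a twofold rise or more, about +100% in these data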;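 further: firefly luciferase made from a UUG start codon reports start codon fidelity; reporter light over untreated wells divided by growth signal over untreated wells; some hits fall short of that in this replicate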
Env fusion inh: inhibitors of HIV Env-mediated cell fusion; HeLa-JRFL Env/CEM21 cell fusion, luciferase; inhibition, % at 12.3 µM; actives 1.1% (n = 360,000);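 active means mean replicate inhibition score of at least 50 and every replicate individually at or above 50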;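 further: 0% = plate neutral controls and 100% = maraviroc near 300 nM; one replicate is shown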
* hit, by the source's call; [ ] = another dose, or the depositor's remark.

no.	compound	UUG fidelity	Env fusion inh
1	O=C(C[C@H]1C[C@H]2c3cc(NC(=O)C4CCC4)ccc3O[C@H]2[C@H](CO)O1)NCC(F)(F)F	6	37[16.7 µM]
2	CC(C)NC(=O)Nc1ccc2c(c1)C(=O)N([C@H](C)CO)C[C@@H](C)[C@H](CN(C)C(=O)c1ccccc1)OCCCC[C@@H](C)O2	16	8[16.7 µM]
3	O=C(C[C@H]1CC[C@@H](NC(=O)CN2CCOCC2)[C@@H](CO)O1)NCCc1ccncc1	6	7[16.7 µM]
4	COc1ccc(S(=O)(=O)N(C)C[C@@H]2OCCCC[C@@H](C)Oc3ccc(NS(=O)(=O)c4ccc(C)cc4)cc3C(=O)N([C@H](C)CO)C[C@@H]2C)cc1	-5	-3[16.7 µM]
5	CCCC(=O)Nc1ccc2c(c1)C(=O)N(C)C[C@@H](OC)[C@H](C)CN(CCC)[C@@H](C)CO2	-4	5[16.7 µM]
6	CC(C)NC(=O)N(C)C[C@H]1Oc2c(NC(=O)C3CC3)cccc2C(=O)N([C@H](C)CO)C[C@H]1C	-2	1[16.7 µM]
7	C[C@H]1CN([C@@H](C)CO)C(=O)c2cc(-c3cccnc3)cnc2O[C@H]1CN(C)C(=O)C1CCOCC1	-9	5[16.7 µM]
8	O=C(C[C@@H]1CC[C@@H](NC(=O)c2ccc3c(c2)OCO3)[C@@H](CO)O1)NCc1ccc(Cl)cc1	2	10[16.7 µM]
9	C[C@@H]1CN([C@@H](C)CO)C(=O)c2cc(NC(=O)CCCN(C)C)ccc2O[C@@H](C)CCCCO[C@@H]1CN(C)C(=O)Nc1ccccc1	0	7[16.7 µM]
10	COc1ccccc1NC(=O)N(C)C[C@@H]1Oc2ncc(C#CCC(C)C)cc2C(=O)N([C@H](C)CO)C[C@H]1C	5	-14[16.7 µM]
11	N#C[C@@H]1[C@@H](c2ccc(-c3ccncc3)cc2)[C@@H](CO)N1C(=O)C1CCCCC1	-4	6[16.7 µM]
12	Cc1ccc(S(=O)(=O)N(C)C[C@@H]2OCCCC[C@H](C)Oc3ccc(NC(=O)Nc4ccc5c(c4)OCO5)cc3C(=O)N([C@H](C)CO)C[C@H]2C)cc1	6	15[16.7 µM]
13	C[C@@H]1CN([C@H](C)CO)C(=O)c2cc(NC(=O)Nc3ccc(C(F)(F)F)cc3)ccc2O[C@@H]1CN(C)S(=O)(=O)c1ccc(F)cc1	-4	12[16.7 µM]
14	CCCC#Cc1ccc2c(c1)O[C@H](CN(C)C(=O)c1cccnc1)[C@@H](C)CN([C@H](C)CO)S2(=O)=O	-5	3[16.7 µM]
15	C[C@H]1CN([C@@H](C)CO)S(=O)(=O)c2ccc(C3=CCCCC3)cc2O[C@@H]1CN(C)C(=O)C1CCC1	-1	27[16.7 µM]
16	N#C[C@@H]1[C@H](c2ccc(-c3cccnc3)cc2)[C@@H](CO)N1C(=O)C1CC1	13	-14[16.7 µM]

Molecules from the list above with sulfur, in the order listed:
no.	compound	UUG fidelity	Env fusion inh
4	COc1ccc(S(=O)(=O)N(C)C[C@@H]2OCCCC[C@@H](C)Oc3ccc(NS(=O)(=O)c4ccc(C)cc4)cc3C(=O)N([C@H](C)CO)C[C@@H]2C)cc1	-5	-3[16.7 µM]
12	Cc1ccc(S(=O)(=O)N(C)C[C@@H]2OCCCC[C@H](C)Oc3ccc(NC(=O)Nc4ccc5c(c4)OCO5)cc3C(=O)N([C@H](C)CO)C[C@H]2C)cc1	6	15[16.7 µM]
13	C[C@@H]1CN([C@H](C)CO)C(=O)c2cc(NC(=O)Nc3ccc(C(F)(F)F)cc3)ccc2O[C@@H]1CN(C)S(=O)(=O)c1ccc(F)cc1	-4	12[16.7 µM]
14	CCCC#Cc1ccc2c(c1)O[C@H](CN(C)C(=O)c1cccnc1)[C@@H](C)CN([C@H](C)CO)S2(=O)=O	-5	3[16.7 µM]
15	C[C@H]1CN([C@@H](C)CO)S(=O)(=O)c2ccc(C3=CCCCC3)cc2O[C@@H]1CN(C)C(=O)C1CCC1	-1	27[16.7 µM]

Remaining list, next part.
no.	compound	UUG fidelity	Env fusion inh
17	C[C@@H]1CN([C@@H](C)CO)C(=O)c2cc(NC(=O)NC3CCCCC3)ccc2O[C@@H](C)CCCCO[C@H]1CN(C)C(=O)Nc1cccc2ccccc12	-2	43[16.7 µM]
18	C[C@@H]1CCCCO[C@H](CN(C)C(=O)Nc2ccc3c(c2)OCO3)[C@@H](C)CN([C@@H](C)CO)C(=O)c2cc(NS(C)(=O)=O)ccc2O1	-3	-62[16.7 µM]
19	CNC(=O)C[C@@H]1CC[C@@H]2[C@H](COc3ccc(NC(=O)c4cnccn4)cc3C(=O)N2C)O1	0	-15[16.7 µM]
20	COc1ccc(-c2cn(CC[C@H]3CC[C@H](NS(=O)(=O)c4ccccc4C)[C@H](CO)O3)nn2)cc1	-9	73*[16.7 µM]
21	C[C@H](NC(=O)C[C@@H]1C=C[C@H](NC(=O)C2CCC2)[C@H](CO)O1)c1ccccc1	-6	10[16.7 µM]
22	CO[C@H]1CN(C)C(=O)c2cc(NC(C)=O)ccc2OC[C@@H](C)N(Cc2ccccc2C(=O)O)C[C@H]1C	-8	-2[16.7 µM]
23	COc1ccc(S(=O)(=O)Nc2ccc3c(c2)C(=O)N([C@H](C)CO)C[C@H](C)[C@@H](CN(C)S(=O)(=O)c2cn(C)cn2)O3)cc1	-3	5[16.7 µM]
24	CC(C)NC(=O)Nc1ccc2c(c1)C(=O)N(C)[C@@H]1CC[C@H](CC(=O)NCC(F)(F)F)O[C@H]1CO2	14	5[16.7 µM]
25	CC(C)CC#Cc1ccc2c(c1)O[C@@H](CN(C)C(=O)c1ccccc1F)[C@H](C)CN([C@H](C)CO)S2(=O)=O	1	34[16.7 µM]
26	C[C@H]1CN([C@@H](C)CO)C(=O)c2cccc(NC(=O)c3cnccn3)c2O[C@@H]1CN(C)S(=O)(=O)c1cn(C)cn1	-10	7[16.7 µM]
27	COc1ccc(NC(=O)N(C)C[C@H]2Oc3ccc(NC(=O)CCN4CCOCC4)cc3C(=O)N([C@H](C)CO)C[C@H]2C)cc1	-4	-5[16.7 µM]
28	CCCNC(=O)Nc1ccc2c(c1)C(=O)N(C)C[C@@H](OC)[C@@H](C)CN(CCC)[C@H](C)CO2	8	19[16.7 µM]
29	C[C@H]1CN([C@@H](C)CO)C(=O)c2cc(-c3cccc(F)c3)cnc2O[C@H]1CN(C)Cc1ccccn1	-21	0[16.7 µM]
30	C[C@H]1CCCCO[C@H](CN(C)C(=O)c2ccncc2)[C@@H](C)CN([C@@H](C)CO)C(=O)c2cc(NS(C)(=O)=O)ccc2O1	0	-2[16.7 µM]
31	C[C@@H]1CN([C@@H](C)CO)C(=O)c2cc(C#CCc3ccccc3)cnc2O[C@@H]1CN(C)C(=O)Cc1cccnc1	2	-7[16.7 µM]
32	CCC(=O)N(C)C[C@H]1Oc2cc(-c3ccc(C#N)cc3)ccc2S(=O)(=O)N([C@@H](C)CO)C[C@H]1C	11	-1[16.7 µM]
33	COc1ccc(NC(=O)Nc2ccc3c(c2)C(=O)N([C@@H](C)CO)C[C@H](C)[C@@H](CN(C)C(=O)Nc2cccc4ccccc24)O3)cc1	-11	10[16.7 µM]
34	O=C(C[C@H]1CC[C@H](NC(=O)Nc2cc(F)ccc2F)[C@H](CO)O1)NCc1ccncn1	-24	4[16.7 µM]
35	C[C@H]1CN([C@@H](C)CO)C(=O)CCCn2cc(nn2)CO[C@@H]1CN(C)S(=O)(=O)c1cn(C)cn1	6	16
36	C[C@H](CO)N1C[C@H](C)[C@H](CN(C)S(C)(=O)=O)Oc2ccc(NS(=O)(=O)c3cn(C)cn3)cc2CC1=O	-17	6[16.7 µM]
37	C[C@@H]1CN([C@@H](C)CO)S(=O)(=O)c2ccc(-c3ccccc3)cc2O[C@H]1CN(C)CC1CCCC1	1	31[16.7 µM]
38	COc1ccc(NC(=O)Nc2ccc3c(c2)C(=O)N([C@@H](C)CO)C[C@H](C)[C@@H](CN(C)Cc2ccc(C(=O)O)cc2)OCCCC[C@@H](C)O3)cc1	1	-27[16.7 µM]
39	Cc1noc(C)c1NC(=O)Nc1ccc2c(c1)CC(=O)N([C@H](C)CO)C[C@@H](C)[C@@H](CN(C)C(=O)Nc1ccc3c(c1)OCO3)O2	2	8[16.7 µM]
40	C[C@H]1CCCCO[C@@H](CN(C)C(=O)C2CCCCC2)[C@@H](C)CN([C@@H](C)CO)C(=O)c2cc(NS(C)(=O)=O)ccc2O1	8	4[16.7 µM]
41	C[C@H](CO)N1C[C@H](C)[C@H](CN(C)Cc2ccccc2)OCCCC[C@H](C)Oc2ccc(N(C)C)cc2C1=O	5	-15[16.7 µM]
42	C[C@@H]1CN([C@H](C)CO)C(=O)c2cc(NC(=O)Nc3cccc4ccccc34)ccc2O[C@@H](C)CCCCO[C@@H]1CN(C)S(=O)(=O)c1cccs1	-9	20[16.7 µM]
43	COc1ccc(S(=O)(=O)Nc2cccc3c2O[C@@H](CN(C)C(=O)NC(C)C)[C@@H](C)CN([C@@H](C)CO)C3=O)cc1	1	-15[16.7 µM]
44	C[C@@H]1CN([C@@H](C)CO)C(=O)c2cc(NS(=O)(=O)c3cccs3)ccc2O[C@@H](C)CCCCO[C@H]1CN(C)CC1CCCCC1	5	-33[16.7 µM]
45	CO[C@@H]1CN(C)C(=O)c2ccc(NS(C)(=O)=O)cc2OC[C@@H](C)N(CC2CCOCC2)C[C@H]1C	-5	-3[16.7 µM]
46	O=C(Nc1ccc2c(c1)[C@@H]1C[C@@H](CC(=O)N3CCCCC3)O[C@H](CO)[C@@H]1O2)Nc1ccccc1F	-5	-2[16.7 µM]
47	[N-]=[N+]=NCc1ccccc1C[C@]1(C(=O)NCC(O)CO)N=C(c2ccc(OCCCO)cc2)O[C@H]1c1ccccc1 (stereo partly specified)	9	3[16.7 µM]
48	C[C@H](CO)N1C[C@H](C)[C@H](CN(C)Cc2ccncc2)Oc2cc(C#C[C@@H](C)O)ccc2S1(=O)=O	-2	-22[16.7 µM]
49	O=C(NCC[C@H]1CC[C@@H](NS(=O)(=O)Cc2ccccc2)[C@@H](CO)O1)C1CCCC1	-2	16[16.7 µM]
50	C[C@@H]1CN([C@@H](C)CO)C(=O)c2cc(-c3cccc(C(=O)N(C)C)c3)cnc2O[C@@H]1CN(C)S(=O)(=O)c1ccc(F)cc1	4	-13[16.7 µM]
51	C[C@H](CO)N1C[C@H](C)[C@@H](CN(C)Cc2cncnc2)Oc2ncc(-c3cncnc3)cc2C1=O	-10	19[16.7 µM]
52	CC(=O)N(C)C[C@H]1Oc2cc(/C=C/c3ccccc3)ccc2S(=O)(=O)N([C@@H](C)CO)C[C@@H]1C	21	-4[16.7 µM]
53	CN(C)C(=O)c1ccc(-c2ccc([C@@H]3[C@H](C#N)N(C(=O)C4CC4)[C@H]3CO)cc2)cc1	18	-5[16.7 µM]
54	C[C@@H]1CN([C@@H](C)CO)C(=O)Cc2cc(NC(=O)C3CCCCC3)ccc2O[C@@H]1CN(C)Cc1ccc(C(=O)Nc2ccccc2N)cc1	0	-46[16.7 µM]
55	O=C(C[C@@H]1C[C@@H]2c3cc(NC(=O)c4ccc5c(c4)OCO5)ccc3O[C@@H]2[C@@H](CO)O1)NCc1ccc(Cl)cc1	-9	11[16.7 µM]
56	C[C@H](CO)N1C[C@H](C)[C@@H](CN(C)C(=O)Nc2ccccc2)OCCCC[C@H](C)Oc2ccc(NC(=O)NC3CCCCC3)cc2C1=O	-18	-49[16.7 µM]
57	O=C(C[C@@H]1CC[C@H](NC(=O)C2CC2)[C@@H](CO)O1)NCc1ccccc1Cl	-3	-3[16.7 µM]
58	CC(C)NC(=O)N(C)C[C@H]1OCCCC[C@H](C)Oc2ccc(NS(C)(=O)=O)cc2C(=O)N([C@H](C)CO)C[C@@H]1C	1	6[16.7 µM]
59	COCC#Cc1ccc2c(c1)O[C@H](CN(C)C(=O)C1CC1)[C@H](C)CN([C@@H](C)CO)S2(=O)=O	0	11[16.7 µM]
60	CCC(=O)N(C)C[C@@H]1Oc2cc(C#CC3CCCCC3)ccc2S(=O)(=O)N([C@H](C)CO)C[C@H]1C	-2	27[16.7 µM]
61	COc1ccc(-c2cn(CC[C@H]3CC[C@@H](NC(=O)c4cnccn4)[C@H](CO)O3)nn2)cc1	-14	1[16.7 µM]
62	C[C@@H]1CCCCO[C@H](CN(C)CC2CCCCC2)[C@H](C)CN([C@H](C)CO)C(=O)c2cc(NC(=O)Cc3ccccc3)ccc2O1	12	-8[16.7 µM]
63	CO[C@@H]1CN(C)C(=O)c2ccc(NC(=O)C3CCCCC3)cc2OC[C@@H](C)N(C(=O)c2ccccc2)C[C@@H]1C	17	-15[16.7 µM]
64	CCCNC(=O)N(C)C[C@H]1Oc2cc(C#CCN(C)C)ccc2S(=O)(=O)N([C@H](C)CO)C[C@@H]1C	-1	1[16.7 µM]
65	CC(C)CC#Cc1ccc2c(c1)O[C@@H](CN(C)C(=O)c1cccnc1)[C@H](C)CN([C@@H](C)CO)S2(=O)=O	6	15[16.7 µM]
66	O=C(C[C@@H]1CC[C@@H](NS(=O)(=O)c2ccccc2)[C@H](CO)O1)NCc1ccccc1F	3	-6[16.7 µM]
67	Cc1ccc(S(=O)(=O)Nc2ccc3c(c2)C(=O)N([C@H](C)CO)C[C@@H](C)[C@H](CN(C)Cc2ccc(C(=O)O)cc2)OCCCC[C@@H](C)O3)cc1	2	-2[16.7 µM]
68	C[C@@H]1CN([C@H](C)CO)C(=O)c2cc(NS(=O)(=O)c3ccc(F)cc3)ccc2O[C@@H]1CN(C)Cc1ccc(C(=O)Nc2ccccc2N)cc1	0	0[16.7 µM]
69	O=C(NCC[C@H]1CC[C@@H](NS(=O)(=O)c2cccc(F)c2)[C@@H](CO)O1)c1cnccn1	90	-20[16.7 µM]
70	CCCN(C)C[C@H]1Oc2cc(C#C[C@H](C)O)ccc2S(=O)(=O)N([C@H](C)CO)C[C@H]1C	16	0[16.7 µM]

High-throughput results as filed in PubChem.

These rows are one share of the data; rates above refer to the full screens.
